# Source: PubChem BioAssay (National Center for Advancing Translational Sciences (NCATS))
# Marburg entry inh – qHTS for inhibitors of binding or entry into cells for Marburg Virus; Marburg virus pseudotyped entry inhibition, cell reporter; control for the full effect not named in the record; about a third of the inactives were read at about 46 µM; Potency, µM (highest dose often 37.8 µM), for the others: top-dose activity change, negative = inhibition, most hits filed as inhibitors; 300,000 compounds, 1.8% hits; AID 540276, 2011; active = well fitted inhibition curve with a large enough effect; inconclusive = small, poorly fitted or top-dose-only effect, or effect the other way; inactive = flat fitted curve, though single readings scatter; tested in HEK293 cells; about a fifth of its hits are not listed in these tables; also: % is scaled to controls: 0 for no effect and ±100 for the full control effect; luciferase read-out
# RE007 growth inh – qHTS Assay for Inhibitors of the HIV-1 protein Vpr. S. pombe RE007 Vpr strain, BacTiter-Glo ATP luminescence, 24 h; control for the full effect not named in the record. Potency, µM (doses to about 92.2 µM), for inactives: top-dose activity change, negative = less growth. 360,000 compounds, 0.21% hits. AID 651644, 2012; active = well fitted falling curve with a large enough effect; inconclusive = small, poorly fitted or top-dose-only effect; inactive = no such curve, though single readings can be large or run the other way;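 also: % is scaled to controls: 0 for no effect and ±100 for the full control effect; nearly all actives have a fitted effect of over 50% in size; the assay follows cell death caused by Vpr and the record does not say whether a fall means rescue or toxicity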
#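 Fission yeast RE007 carrying one integrated HIV-1 vpr copy, seeded at OD 0.01 in PMG+AL medium with 23 nL pinned compound. Grown 24 h at 30 degrees; viability read by BacTiter-Glo luminescence after 5 min.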
# Cruzain inh noDet – qHTS Assay for Promiscuous and Specific Inhibitors of Cruzain (without detergent); 200,000 compounds, 2.3% hits; Cruzipain (Trypanosoma cruzi), P25779; Potency, µM, inactives show max response, negative = inhibition, most hits filed as inhibitors; purified cruzain, Z-FR-AMC fluorescence, no detergent; active = well fitted curve in the direction sought with a large enough effect; inconclusive = small, poorly fitted or top-dose-only effect, or another doubt; inactive = no such curve, though single readings can be large; an effect the other way counts as inactive or inconclusive;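 also: plate controls were enzyme without inhibitor for no effect and buffer without enzyme for full effect; nearly all actives have a fitted effect of over 40% in size; top concentration of the series not given in the record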
# Target sequence (P25779 123-467 limits assumed): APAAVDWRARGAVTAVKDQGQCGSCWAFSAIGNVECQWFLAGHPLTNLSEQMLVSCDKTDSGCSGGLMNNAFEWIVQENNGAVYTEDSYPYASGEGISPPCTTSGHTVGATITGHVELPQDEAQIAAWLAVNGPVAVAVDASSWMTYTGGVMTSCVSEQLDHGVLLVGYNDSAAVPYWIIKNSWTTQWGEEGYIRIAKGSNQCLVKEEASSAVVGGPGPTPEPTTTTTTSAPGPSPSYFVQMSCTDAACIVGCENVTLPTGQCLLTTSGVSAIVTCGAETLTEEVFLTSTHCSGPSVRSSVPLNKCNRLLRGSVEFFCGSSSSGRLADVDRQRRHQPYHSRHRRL
#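 Purified cruzain at 1.5 nM, pre-incubated 15 min with compound at room temperature in 100 mM sodium acetate pH 5.5, 5 mM DTT, 0.00005% Triton X-100. Reaction started with 2 uM Z-FR-AMC; AMC fluorescence increase over 60 s gives rate.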
# StopGo reporter – High Throughput Screening for Foot and Mouth Disease Virus Antivirals | human cells with a luciferase reporter of 2A StopGo recoding; control for the full effect not named in the record | Potency, µM (highest dose often 57.9 µM), for inactives: top-dose signal change, negative = less light | 410,000 compounds, 1.2% hits; active = well fitted falling curve with a large enough effect; inconclusive = small, poorly fitted or top-dose-only effect; inactive = no such curve, though single readings can be large or run the other way; tested in HEK293T cells; also: % is scaled to controls: 0 for no effect and ±100 for the full control effect; nearly all actives have a fitted effect of over 45% in size; luciferase light after 4 h
# NS1 function inh – qHTS Assay for Inhibitors of Influenza NS1 Protein Function | S. cerevisiae slowed by influenza A NS1, growth recovery by OD600 | 270,000 compounds, 0.4% hits | Potency, µM (top dose mostly 46.1 µM), inactives show top-dose activity, positive = more growth; also: actives are rising curves; nearly all actives have a fitted effect of over 50% in size
#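 Recovery from NS1-induced slow growth read by OD600 in budding yeast switched to galactose assay medium (pH 6.0, -URA) at 1:100 dilution. Compound 23 nl per well; the matching strain lacking NS1 serves as control.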
# Cruzain inh Det – qHTS Assay for Promiscuous and Specific Inhibitors of Cruzain (with detergent). Cruzipain (Trypanosoma cruzi), P25779. purified cruzain, Z-FR-AMC fluorescence, 0.01% Triton. Potency, µM, without a hit: max response, negative = inhibition, actives largely listed as inhibitors. 200,000 compounds, 0.43% hits. AID 1478, 2009; active = well fitted curve in the direction sought with a large enough effect; inconclusive = small, poorly fitted or top-dose-only effect, or another doubt; inactive = no such curve, though single readings can be large; an effect the other way counts as inactive or inconclusive;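 also: plate controls were neutral wells for no effect and buffer without enzyme for full effect; nearly all actives have a fitted effect of over 40% in size; top concentration of the series not given in the record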
#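 Z-FR-AMC hydrolysis (2 uM substrate) by cruzain (1.5 nM) monitored kinetically at ex 360/em 450 nm after 15 min room-temperature compound exposure; 0.01% Triton X-100, pH 5.5, 5 mM DTT.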
# SARS PLpro yeast – qHTS of Yeast-based Assay for SARS-CoV PLP; S. cerevisiae expressing SARS-CoV PLpro, growth rescue; control for the full effect not named in the record; Potency, µM (highest dose often 32.9 µM), inactives show top-dose activity, positive = growth rescue; 330,000 compounds, 0.19% hits; AID 485353, 2010; also: 0% is about no effect; nearly all actives have a fitted effect of over 55% in size; growth read by luminescence after 48 h
# Lassa entry inh – qHTS for Inhibitors of binding or entry into cells for Lassa Virus; 300,000 compounds, 1.2% hits; Lassa virus pseudotype entry inhibition, cell reporter; control for the full effect not named in the record; Potency, µM (titrated, usually from 37.9 µM), for the others: top-dose activity change, negative = inhibition, hits mostly inhibitors; active means well fitted inhibition curve with a large enough effect; inconclusive means small, poorly fitted or top-dose-only effect, or effect the other way; inactive means flat fitted curve, though single readings scatter; tested in HEK293 cells; also: % is scaled to controls: 0 for no effect and ±100 for the full control effect; nearly all actives have a fitted effect of over 50% in size; luciferase read-out
# Numbers without * were called inactive; ? = inconclusive; · = no result given; & = joins results of further samples; [ ] = remark or other dose. Unless noted, calls follow the shape of the dose curve; as a rule, active means well fitted rising curve with a large enough effect; inconclusive means small, poorly fitted or top-dose-only effect; inactive means no such curve, though single readings can be large or run the other way. Potency is read from the fitted curve at half-maximal effect. No enrichment for hits. Share with any hit: about 4.7%.
SMILES,Marburg entry inh,RE007 growth inh,Cruzain inh noDet,StopGo reporter,NS1 function inh,Cruzain inh Det,SARS PLpro yeast,Lassa entry inh
COc1ccccc1-c1cc(C(=O)N/N=C/c2ccc(C)o2)c2ccccc2n1,?,-15%,·,-16%,7%,·,2%,?
CCOC(=O)c1sc(=NC(=O)COc2ccc(Cl)cc2)n(C)c1C,-3%[46.1 µM],-8%,·,13%,·,·,1%,-2%
O=C(NCc1ccccc1)c1ccc2oc(=O)n(Cc3ccccc3)c2c1,·,·,-9%,-5%,·,-2.4%,·,?
CCCSc1nsc(SCCC)c1C#N,?,-11%,2%,71%[activator],0%,-4.5%,8%,19%
Cn1c(SCC(=O)NNC(=O)c2ccccc2)nnc1C1CC1,3%,0%,·,3%,3%,·,1%,-2%
CCC(CO)NCc1ccc(-c2ccccc2)cc1 (stereo unspecified),-26%,0%,-2%,-11%,0%,-0.7%,3%,-4%
CCn1ncc(CN2CCN(C(=O)Nc3ccccc3C(=O)OC)CC2)c1C,17%,-4%,-17%,?,-2%,3.3%,-5%,-9%
Cc1ccc2c(c1)cc1c(=O)n(CC(=O)NC(C)CCc3ccccc3)nc(C)n12 (stereo unspecified),-1%[46.1 µM],·,-5%,-5%,·,0.0%,·,·
COc1ccccc1CNC(=O)COc1cccnc1[N+](=O)[O-],5%[46.1 µM],7%,·,21%,4%,·,0%,0%[46.1 µM]
CCc1nc(C)c(C(=O)N2CCCC(C(=O)Nc3cccc(-c4cccc(C)c4)c3)C2)o1 (stereo unspecified),?,19%,·,4%,-43%,·,-10%,?
Cc1ccc(C(=O)/C=C\NCc2ccccc2)cc1,?,?,0%,10%,-39%,-12%,-34%,1%
c1ccc2[nH]c(-c3ccnc4ccccc34)nc2c1,6%&-14%,1%,8%&-5%,14%&-10%,-11%&-77%,-7.1%&-4.8%,-6%&-12%,10%&-21%
Cc1c(C(=O)N2CCC3(CC2)OCCO3)sc2ncnc(N3CCN(c4ccccn4)CC3)c12,?,-11%,6%,·,-1%,-6.6%,-2%,?
O=c1cccc2n1CC1CC2CN(S(=O)(=O)c2ccc(F)cc2)C1 (stereo unspecified),6%[46.1 µM],-3%,·,16%,3%,·,1%,-27%
O=C(Cn1cc(CCO)nn1)N1CCNCC1,·,-4%,·,-17%,-3%,·,1%,·
Nc1cc(N2CCCC2)ccc1[N+](=O)[O-],-17%,9%,·,15%,4%,·,0%,-17%
Cc1ccc(Sc2c([N+](=O)[O-])ncn2C)cc1,?,-2%,0%,?,6%,7.5%,8%,-9%
N#Cc1ccc(-c2ccc(OCC(=O)NCCc3ccccc3)cc2)cc1,?,-10%,17%,?,?,-8.7%,?,4%
COc1ccc(CS(=O)(=O)CC(C)(O)c2ccccc2)cc1 (stereo unspecified),·,5%,·,-21%,1%,·,0%,·
O=C(Nc1ccc(Oc2ccccc2)nc1)C1CCCCN1Cc1cccc(OCCO)c1 (stereo unspecified),?,19%,·,5%,-5%,·,7%,-8%[46.1 µM]
CCOC(=O)CC1COCCN1C(=O)c1ccc2oc(Cc3ccccc3)nc2c1 (stereo unspecified),23%,?,·,63%[activator],0%,·,0%,-1%
CSc1nnc(-c2cc(Br)ccc2N=Cc2c(C)[nH]n(-c3ccccc3)c2=O)c(=O)[nH]1,9%[46.1 µM],-8%,·,-13%,7%,·,-2%,5%
O=C(CN1CCN(S(=O)(=O)c2ccccc2)CC1)Nc1ccccc1Cl,-23%,-7%,·,-29%,-10%,·,-4%,-9%
COc1ccc(/C=N/NC(=O)Cn2cc(C(F)(F)F)ccc2=O)cc1,8%,19%,·,-12%,·,·,-2%,3%
CCOC(=O)N1CCN(C(=O)CSc2ccc3nnc(-c4cccnc4)n3n2)CC1,7%[46.1 µM],10%,·,-22%,12%,·,-1%,-25%[46.1 µM]
CC(=O)Nc1nc(Cn2nnc(-c3ccc4c(c3)OCO4)n2)nc(N(C)C)n1,-6%[46.1 µM],1%,·,-5%,·,·,-6%,-4%
COc1cc2c(cc1OC)C(C)N(C(=S)NC(=O)c1ccccc1)CC2 (stereo unspecified),-3%[46.1 µM],-10%,·,?,8%,·,0%,-15%
COC(=O)c1ccc(COC(=O)CSCC(=O)Nc2ccc(C)cc2C)cc1,19%,-1%,·,-10%,·,·,-7%,3%
COc1ccc2nc(C)cc(N/N=C/c3ccccc3)c2c1,?,14%,·,-4%,·,·,-2%,?
Cc1nc(SCC(=O)Nc2cc(Cl)ccc2[N+](=O)[O-])nc(C)c1C,5%,16%,-1%,?,-2%,-7.1%,16%,22%
Cc1cccc(NC(=O)Cc2ccc(-n3c(C)nc4cccnc43)cc2)c1C,·,·,-4%,?,·,-19%,·,?
COCCCNc1nc2c(-c3ccc(C)cc3)nnn2c2ccccc12,·,1%,·,23%,-3%,·,-1%,·
O=C(O)c1ccccc1/C=N/NC(=O)C1CCCC1,·,13%,·,-8%,4%,·,8%,·
COc1ccc2nc(NC(=O)CSCc3c(C)noc3C)sc2c1,?,1%,·,16%,·,·,-5%,5%
O=C(CCn1nc(-c2ccc(Cl)cc2)c2ccccc2c1=O)Nc1ccc(OC(F)(F)F)cc1,-2%[46.1 µM],·,-9%,-17%,·,5.4%,·,2%[46.1 µM]
COc1ccc(Cn2c(=S)[nH]c3cc(C(=O)NCc4cccnc4)ccc3c2=O)cc1,-10%[46.1 µM],8%,·,7%,·,·,0%,·
CN(C)c1cccc(NC(=O)NC2(C)CCS(=O)(=O)C2)c1 (stereo unspecified),-13%[46.1 µM],2%,·,6%,-5%,·,9%,-3%[46.1 µM]
COc1cc(S(=O)(=O)Nc2ccccc2)ccc1N=Cc1c(C)[nH]n(-c2ccc(C)cc2)c1=O,-10%,·,?,·,8%,-2.0%,-12%,-5%
O=C(O)c1cc(Nc2nc(N3CCOCC3)nc(N3CCOCC3)n2)ccc1Cl,27%,15%,-6%,-14%,9%,-0.2%,-14%,-6%
CCOC(=O)C1=C(c2ccccc2)OC(N)=C(C#N)C1c1cccs1 (stereo unspecified),6%,13%,3%,-2%,-7%,-11%,7%,8%
CNC(=S)N/N=C/c1c(C)c(C(=O)c2ccc(F)cc2)n2ccccc12,?,7%,·,-18%,4%,·,-1%,-23%
CC1=C(C(=O)OC(C)C)C(c2cccs2)NC(=S)N1 (stereo unspecified),2%,-9%,-20%,-29%,4%,-3.9%,11%,-18%
CSc1nsc(/C=C/Nc2ccc(C)cc2)c1C#N,1%,-10%,3.2µM*,47%[activator],?,-1.4%,·,22%
O=c1ccc2cc(O)c(O)cc2o1,5%,-26%[18.4 µM],-2%&-4%&-2%,-6%&1%,9%,-2.7%&0.1%&-8.3%,9%,-2%
Cc1ccc(NC(=O)CN(C)C(=O)c2ccc(Cl)nc2)cc1,6%[46.1 µM],-5%,·,6%,14%,·,-1%,0%
CCc1ccc(NC(=O)C(=O)NCC(c2ccc3c(c2)OCO3)N2CCOCC2)cc1 (stereo unspecified),·,·,-3%,-1%,·,0.9%,·,6%[46.1 µM]
COc1ccc(N2CC(C(=O)Nc3nc4ccc(OC)cc4s3)CC2=O)cc1 (stereo unspecified),9%[46.1 µM],2%,·,-9%,1%,·,-4%,·
OCc1c[nH]c2ccccc12,·,6%,-12%&-4%,0%&3%,·,1.0%&-5.1%,·,·
COCCCNC(=S)N1CCN(c2ccc([N+](=O)[O-])cc2)CC1,?,·,-4%,0%,8%,-4.5%,12%,1%
COc1ccc(Cl)cc1NC(=O)c1cc(S(=O)(=O)N2CCCC2)cn1C,·,-7%,·,-1%,0%,·,1%,·
CCNC(=S)NNC(=O)Cc1ccccc1,13%,26%,-5%,4%,10%,2.5%,-14%,-15%
Cc1coc2c(C)c3oc(=O)c(CCC(=O)NCCc4ccc(Cl)cc4)c(C)c3cc12,8%[46.1 µM],·,-5%,-7%,·,-1.7%,·,0%[46.1 µM]
COCC(C)NC(=O)c1cccc(Cl)c1 (stereo unspecified),-1%,4%,7%,0%,1%,7.4%,·,12%
COc1ccc(Cl)cc1NC(=S)NNC(=O)CC(C)C,-3%[46.1 µM],-21%,·,11%,1%,·,1%,·
COc1ccc(-n2nc3cc(C)c(NC(=O)Cc4ccc(Cl)cc4)cc3n2)cc1,·,·,-6%,-11%,·,0.2%,·,11%[46.1 µM]
O=C(N/C=C/c1ccco1)OCc1ccccc1,0%[46.1 µM],-22%,·,13%,·,·,-1%,-18%[46.1 µM]
CCCc1[nH]nc2c1C(c1ccc(OC(=O)N3CCOCC3)cc1)C(C#N)=C(N)O2 (stereo unspecified),11%,7%,-3%,·,-8%,-2.1%,3%,-1%
CC(C)(CNS(=O)(=O)c1ccc(Br)s1)N1CCOCC1,-4%,-1%,·,-2%,·,·,5%,-2%
Cc1c(O)nc2ccccn2c1=O,-4%[46.1 µM],6%,·,4%,0%,·,0%,-18%[46.1 µM]
COC(=O)[C@H](Cc1ccccc1)NC(=O)Nc1ccc(C)cc1,1%,4%,-4%,·,-7%,-3.6%,4%,9%
# The listing continues.
SMILES,Marburg entry inh,RE007 growth inh,Cruzain inh noDet,StopGo reporter,NS1 function inh,Cruzain inh Det,SARS PLpro yeast,Lassa entry inh
CCCCC(=O)N(Cc1ccc2c(c1)OCO2)Cc1nc2ccccc2c(=O)[nH]1,?,-12%,·,-6%,-2%,·,0%,-17%
Cc1ccc(S(=O)(=O)N2CCCC2C(=O)OCc2ccco2)cc1 (stereo unspecified),1%,-12%,?,3%,-25%,-6.7%,7%,12%
C/C(=N\OC(=O)c1ccc(Br)cc1)c1ccccn1,8%,-13%,2%,10%,-24%,-0.1%,-34%,5%
COc1ccc(CCNC(=O)c2nnn(CC(=O)Nc3ccc(C)cc3C)c2N)cc1OC,-23%[46.1 µM],-13%,·,-17%,-10%,·,-4%,?
